PABP FP inh = PABP poly(A) RNA binding inhibitors, primary screen, biochemical, fluorescence polarization, uHTS; inhibition, % at 35 µM; actives 1% (n = 290,000); AID 2014, 2009;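 active means 50% or more with normal probe brightness, or confirmed in later tests; inconclusive means above 50% with abnormal brightness, or retests that disagree; inactive means below 50% or failed in later tests; about a fifth of its hits are not listed in these tables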;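 further: calls also rest on retests at 20 µM and on dose response follow-up; controls were probe without protein and protein plus probe with vehicle; some compounds called inactive have numbers as strong as hits; many hits fall short of the cut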
eIF4H inh = human eIF4H binding inhibitors, primary screen, translation initiation inhibitor project, biochemical, uHTS, fluorescence polarization; Eukaryotic translation initiation factor 4H (Homo sapiens), Q15056; eIF4H fluorescence polarization binding assay; inhibition, % at 35 µM; actives 0.94% (n = 290,000); AID 2012, 2009;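 active means 50% or more with normal probe brightness, or confirmed in later tests; inconclusive means above 50% with abnormal brightness, or retests that disagree; inactive means below 50% or failed in later tests; about a fifth of its hits are not listed in these tables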;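 further: calls also rest on retests at 20 µM and on dose response follow-up; 0% = protein and probe with vehicle and 100% = probe without protein; strong numbers were not always called active; many hits fall short of the cut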
Env fusion inh = inhibitors of HIV-1 Env-driven cell-cell fusion, primary screen, HeLa-JRFL effector, CEM21 target cells, luciferase. inhibition, % at 12.3 µM. actives 1.1% (n = 360,000). AID 651610, 2012;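 active means mean replicate inhibition score of at least 50 and every replicate individually at or above 50; inconclusive means only one of the two criteria met; inactive means mean below 50 and not all replicates reaching 50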;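 further: 0% = plate neutral controls and 100% = maraviroc near 300 nM; one replicate is shown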
UUG fidelity = modulators of yeast start codon fidelity, primary screen, whole organism, S. cerevisiae, single point, plate reader | AID 602363, 2012 | activity score, % at 18.7 µM | S. cerevisiae UUG-firefly luciferase reporter, luminescence/redox ratio | actives 0.13% (n = 350,000);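 active means replicate mean at a twofold rise or more, about +100% in these data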;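 further: firefly luciferase made from a UUG start codon reports start codon fidelity; reporter light over untreated wells divided by growth signal over untreated wells; some hits fall short of that in this replicate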
Rce1 inhib = yeast Rce1p protease inhibitors, primary screen, biochemical, fluorescence, cell-free homogeneous; CAAX prenyl protease 2 (Saccharomyces cerevisiae (strain ATCC 204508 / S288c)), Q03530; yeast membranes, quenched prenylated peptide cleavage fluorescence; calls only; actives 0.27% (n = 290,000);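 active means fall in fluorescence gain of 50% or more versus controls, with final raw signal at or below 3038400; inconclusive means same 50% fall but final raw signal above 3038400; inactive means fall in fluorescence gain under 50%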;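 further: plate controls were neutral control wells for no effect and wells lacking membranes for full effect; tested at 10 µM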
Target sequence (Q03530 whole entry, looked up): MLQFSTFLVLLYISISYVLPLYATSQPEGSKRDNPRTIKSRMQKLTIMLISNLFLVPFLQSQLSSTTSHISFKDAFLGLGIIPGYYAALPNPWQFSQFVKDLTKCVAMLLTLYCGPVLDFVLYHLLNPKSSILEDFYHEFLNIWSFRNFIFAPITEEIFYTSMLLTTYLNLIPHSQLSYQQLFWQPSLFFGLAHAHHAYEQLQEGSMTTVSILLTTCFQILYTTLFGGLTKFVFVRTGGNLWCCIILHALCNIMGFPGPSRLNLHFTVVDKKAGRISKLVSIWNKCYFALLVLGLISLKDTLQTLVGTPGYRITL
MT1-MMP act inh = blockers of MT1-MMP proenzyme processing, primary screen, HT1080 RFP-PRO-GFP cells, GFP/RFP fluorescence; Matrix metalloproteinase-14 (Homo sapiens), P50281; AID 651647, 2012; actives 0.061% (n = 360,000); GFP/RFP ratio change, % at 20 µM; GFP/RFP ratio fluorescence, overnight; percent of plate control window, DMSO zero;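 active means GFP/RFP ratio change of at least 30% with cell ATP level not reduced by more than half and red fluorescence within 50% of control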; further: strong numbers were not always called active
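Compound: 20 µM single dose, 1% DMSO / System: HT1080 RFP-PRO-GFP cells / Controls: DMSO and RFP-L50D-GFP cell wells / Read-out basis: GFP/RFP fluorescence ratio / Schedule: overnight compound exposure at 37 °C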
CSC inhib = cancer stem cell viability inhibitors, primary screen, luminescence; actives 1.1% (n = 300,000); cancer stem cell-like cells viability; inhibition, % at 7.5 µM;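 active means mean at 75% or more and at least half the replicates too; inconclusive means mean and replicates disagree; tested in HMLE shEcad cells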;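 further: 0% = median of negative and 100% = median of positive control wells; the first replicate is given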
eIF4H inh retest = further read-out of eIF4H inh, marked with its call; inhibition, %; compound at 20 µM; confirmation average;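 mean of two retest wells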
PABP FP inh retest = further read-out of PABP FP inh, marked with its call; inhibition, %; compound at 20 µM; confirmation repeats;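 mean of two retest wells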
MT1-MMP act inh RFP = also measured in MT1-MMP act inh; calls as there; RFP signal change, %; measured here: RFP expression control read;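 0 = vehicle wells; hits needed this value within 50% of zero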
Active calls of the source: *; i = inactive; ? = inconclusive; . = not tested or not shown. These rows are one share of the data; count on the stated rates, not on these rows.

SMILES | PABP FP inh | eIF4H inh | Env fusion inh | UUG fidelity | Rce1 inhib | MT1-MMP act inh | MT1-MMP act inh RFP | CSC inhib | others
CCOC(=O)c1ccc(NC(=O)C(C)Sc2nc(O)c(-c3ccccc3)c(=O)[nH]2)cc1 (centres undefined) | -4 | -1 | 11 | . | i | 1 | 3 | 3
CCOc1ccc2nc(NC(=O)NC3CCCCC3)sc2c1 | -4 | -9 | 0 | 1 | i | 1 | -4 | 11
COc1ccc(CC(=O)OCC(=O)Nc2ccc(F)cc2)cc1 | . | . | -14 | -13 | . | 2 | 2 | .
O=C(O)CCn1cc(/C=C/C(=O)c2ccc(Cl)cc2)c(-c2cccc(Br)c2)n1 | 6 | -6 | -5 | 6 | i | 4 | -6 | 78*
CC(C)C[C@H](NC(=O)c1nc[nH]c1C(=O)N1CCc2ccccc2C1)C(=O)OC(C)(C)C | -3 | -4 | -11 | -11 | i | 9 | 1 | 3
O=C1/C(=C/N(C(=O)c2ccco2)c2ccc(Cl)cc2)Sc2ccccc21 | 10 | -4 | . | . | i | -15 | 1 | 29
CC(=O)N1CCN(C(=S)c2ccc(-c3ccc(Cl)cc3)o2)CC1 | 8 | 2 | . | -7 | i | 0 | 2 | -5
Cc1sc(NC(=O)C2CC(=O)N(Cc3ccco3)C2)nc1-c1ccccc1 (centres undefined) | . | . | 9 | -6 | . | -3 | 4 | .
CCC(=O)NC1=C(C#N)C2(CCCC2)Cc2ccccc21 | -4 | 8 | . | -11 | i | 5 | -3 | -15
COc1ccc(CCNC(=O)C(=O)NCC2CCCN2S(=O)(=O)c2cc(C)ccc2C)cc1 (centres undefined) | . | . | 19 | -15 | i | -5 | -7 | -12
COc1cc(/C=N/NC(=O)c2cccc3ccccc23)cc(OC)c1OC | 1 | -1 | 15 | 2 | i | 7 | -10 | -4
COc1ccc(NC2=CC(c3ccc(OC)cc3)N(c3ccc(OC)cc3)C2=O)cc1 (centres undefined) | -8 | -8 | 7 | . | i | 1 | 2 | 6
Clc1ccc(-c2nc(Cc3ccccc3)no2)cc1 | -7 | 2 | . | -10 | i | 4 | 4 | -2
O=C(CSc1nc(C2CC2)nc2sc3c(c12)CCCC3)NCc1ccco1 | 0 | 3 | -12 | -18 | i | 3 | -1 | 16
CC(C)CN1C(=O)C(=O)N(CC(=O)N2c3ccccc3NC(=O)CC2C)C1=O (centres undefined) | . | . | -1 | -7 | . | -1 | 7 | .
O=C(Nc1ccc2c(c1)OCCO2)c1ccc(Cl)c(Cl)c1 | 0 | -4 | -186 | -12 | i | 2 | -4 | 0
COc1ccc(-c2oc(NC(=O)c3ccc(C)cc3)c(C#N)c2-c2ccc(OC)cc2)cc1 | 3 | 3 | . | -5 | i | -14 | -16 | -5
COc1ccc(NS(=O)(=O)c2cccc(C(=O)O)c2)cc1S(=O)(=O)N1CCOCC1 | . | . | 0 | -4 | . | 0 | 2 | 0
O=C(Cn1c(NCCO)nc2ccccc21)c1cccs1 | 7 | 3 | . | -18 | i | 1 | 3 | 3
CCC(C(=O)Nc1ccccc1F)n1nc(C)c2c(C)n(-c3ccccc3)nc2c1=O (centres undefined) | 0 | 1 | -2 | 6 | i | 4 | 6 | -2
Cc1nc2ccccn2c1C(=O)N/N=C/c1ccc([N+](=O)[O-])cc1 | 8 | 6 | . | . | i | . | . | -4
CCCCNC(=O)CSc1nc2cc(OC)c(OC)cc2c(=O)n1Cc1ccc(OC)cc1 | 1 | -1 | -69 | -16 | i | -5 | -2 | -2
Cc1cc(C)c(C#N)c(Nc2cccc(C)c2C)n1 | -2 | -11 | 3 | -4 | i | 3 | -4 | 0
CCO[C@@H]1OC(C(=O)O)=C[C@H](c2ccc3c(c2)OCO3)[C@H]1CCCO | 4 | 4 | -4 | -1 | i | 1 | 2 | -3
O=C(Nc1cccc2ccccc12)c1ccc([N+](=O)[O-])o1 | -1 | -7 | -14 | -16 | i | 4 | -9 | 67

Next section:
SMILES | PABP FP inh | eIF4H inh | Env fusion inh | UUG fidelity | Rce1 inhib | MT1-MMP act inh | MT1-MMP act inh RFP | CSC inhib | others
c1ccc(SCCN2CCN(c3ccccc3)CC2)cc1 | -13 | -12 | -2 | -15 | i | 4 | -3 | 7
Cc1[nH]c(=O)[nH]c(=O)c1S(=O)(=O)N1CCN(c2ccccc2)CC1 | 4 | -13 | -2 | -13 | i | -1 | 2 | -5
COc1ccccc1NC(=O)C(Cc1ccc(Cl)cc1)c1nn[nH]n1 (centres undefined) | 30 | 21 | -13 | -16 | . | 0 | -1 | -9
O=C(Nc1ccc(N2CCN(C(=O)c3ccco3)CC2)cc1)c1cccnc1Cl | -4 | -7 | -19 | . | i | 2 | 3 | -6
CN1CCN(C(=O)/C(=C/c2cccnc2)NC(=O)c2cccc(Br)c2)CC1 | 0 | 0 | 5 | -11 | i | -4 | -6 | -3
O=S(=O)(NCCc1ccccc1)c1ccc(S(=O)(=O)N2CCCCC2)cc1 | -7 | -6 | . | -18 | i | 1 | -1 | 2
Nc1c(C(=O)NCCN2CCOCC2)c2nc3ccccc3nc2n1-c1ccccc1 | 0 | -10 | . | -1 | i | 13 | 2 | .
CC(NC(=O)c1ccc(N2CCNCC2)c([N+](=O)[O-])c1)C12CC3CC(CC(C3)C1)C2 (centres undefined) | -1 | 7 | . | 1 | i | . | . | 86*
COc1ccc(C2c3c(ncn(CCCO)c3=N)Oc3ccc4ccccc4c32)cc1OC (centres undefined) | -11 | -8 | -25 | -2 | i | 7 | 3 | .
CCOC(=O)C1CCN(c2ncnc3c2c(-c2ccccc2)cn3-c2ccccc2)CC1 | 9 | -4 | 12 | -3 | i | -4 | -9 | ?
O=C(Cc1cccs1)NNC(=S)NCc1ccc(Cl)cc1 | 7 | 14 | . | -16 | i | 3 | 0 | 0
COc1cccc(NC(=O)COC(=O)CCSc2ccccc2)c1 | . | . | -7 | -15 | . | -1 | 4 | -23
Cc1ccc(CN2CCN(Cc3cnc(N4CCOCC4)s3)CC2CCO)cc1 (centres undefined) | -9 | -1 | -12 | . | i | -2 | -3 | 26
CCOC(=O)CC1COCCN1C(=O)c1cc(COc2ccc(F)c(F)c2)on1 (centres undefined) | 2 | -7 | -14 | . | i | 0 | -2 | -3
CC(=O)c1ccc(CC2SC(N)=NC2=O)cc1 (centres undefined) | -4 | 2 | -10 | -3 | i | 3 | 2 | -5
O=C(NS(=O)(=O)Nc1ccccn1)c1c[nH]c2ccccc12 | 5 | 2 | 0 | -12 | i | 3 | 4 | -9
Cn1cc(-c2ccccc2C(=O)O)c(=O)c2cc(Cl)ccc21 | 26 | 5 | -14 | -12 | i | -3 | 1 | -7
CC(=O)C[C@@H](O)CC(=O)[C@H]1OC(=O)CCCCCCCCc2ccccc21 | . | . | 15 | -13 | . | -12 | 1 | .
Cc1c(C(=O)O)oc2c1/C(=N\O)CCC2 | 7 | -3 | -8 | . | i | 3 | 6 | -16
Cc1cccc(NC(NC(=O)c2ccccc2[N+](=O)[O-])C(Cl)(Cl)Cl)c1 (centres undefined) | 3 | -3 | 3 | -14 | i | 6 | -2 | .
Cc1cccc(N(C)C(=O)c2cnn(-c3ccccc3)c2C)c1 | 25 | 31 | 17 | -13 | i | -3 | -3 | -12
CC(=O)Nc1cccc(/C(C)=N/NC(=O)c2c(-c3ccccc3Cl)noc2C)c1 | -5 | 6 | 10 | . | i | 4 | -9 | -7
O=C(Nc1ccccc1O)c1cc2cc(Br)ccc2oc1=O | -1 | -11 | -26 | -15 | i | 8 | 6 | 15
Cc1cnn(C(=O)c2ccccc2Br)c1 | 4 | 5 | . | . | i | . | . | 5
COc1ccc(S(=O)(=O)N2CCCC(C(=O)N3CCN(C)CC3)C2)cc1C (centres undefined) | 1 | -2 | . | -14 | i | 6 | 5 | -9

More compounds:
SMILES | PABP FP inh | eIF4H inh | Env fusion inh | UUG fidelity | Rce1 inhib | MT1-MMP act inh | MT1-MMP act inh RFP | CSC inhib | others
CC1=C(C(=O)Nc2ccccc2)C(c2ccncc2)C(C#N)=C(SCC(=O)Nc2ccccc2)N1 (centres undefined) | -2 | -15 | 14 | -4 | . | 5 | -16 | 0
Cc1sc(Nc2ccc([N+](=O)[O-])cc2)nc1-c1c(C)n(C)n(-c2ccccc2)c1=O | -2 | -2 | -17 | -2 | i | 7 | -6 | -3
O=C(CCCn1c(=S)[nH]c2ccsc2c1=O)Nc1ccc2c(c1)OCO2 | 0 | 2 | -8 | -8 | . | 3 | 4 | 28
COc1ccc(OC)c(C(C)NC=O)c1 (centres undefined) | -2 | -9 | . | -8 | i | 4 | 2 | -8
O=C(Cc1ccc(Cl)cc1Cl)Nc1cccc(S(=O)(=O)Nc2ccccc2F)c1 | -15 | 2 | 4 | 6 | i | 3 | -10 | 13
COC(=O)c1c(O)cc(=O)n2c1CCCCC2 | -10 | 6 | -11 | . | i | -3 | 1 | -17
O=C(Nc1ccc(N2CCN(C(=O)c3ccccc3F)CC2)cc1)c1ncn[nH]1 | -6 | -6 | 37 | . | i | -4 | -4 | 4
Cc1ccccc1C(=O)OCCCN=C1NS(=O)(=O)c2ccccc21 | 80 | -11 | -39 | -11 | i | 0 | -1 | -5 | eIF4H inh retest=-14;PABP FP inh retest=0
COc1ccc(NC(=O)CCS(=O)(=O)c2ccc3c(c2)oc(=O)n3C)cc1 | 17 | 31 | -5 | -15 | i | -5 | -2 | 3
CC(C)(O)C#Cc1ccc(CN2CCC(CO)(CCc3ccccc3)CC2)cc1 | -3 | -8 | -7 | -4 | i | -1 | -1 | -5
O=C(Nc1ccccc1C(F)(F)F)c1cc(-c2ccccc2O)on1 | 7 | -4 | -47 | 3 | i | 0 | -1 | -3
CN1CCN(CC(=O)n2c3c(c4ccccc42)CCCC3)CC1 | 14 | 1 | . | . | i | -4 | 3 | 0
O=C(Cn1c2c(sc1=O)C1c3ccccc3OCC1CS2)Nc1ccc(Cl)cc1 (centres undefined) | 7 | 31 | 5 | . | i | -5 | -6 | -5
Cc1noc(C)c1S(=O)(=O)Nc1ccccc1Oc1ccccc1 | 5 | -2 | 3 | . | i | -2 | -2 | -2
Cc1nnc(SCC(=O)Nc2ccc(Oc3ccccc3)cc2)n1N | -9 | 3 | . | -8 | i | 4 | 4 | -5
O=C(NC(=S)Nc1ccc(N2CCOCC2)cc1)c1cccc(Cl)c1 | -13 | -1 | -8 | . | i | 7 | 3 | 25
COc1ccc(C(=O)N2CCN(CCc3ccccc3)CC2)cc1[N+](=O)[O-] | -2 | -8 | -2 | -11 | i | 5 | 0 | -2
CC1(C)C(c2ccccn2)=[N+]([O-])C(C)(C)N1O | 5 | -4 | . | -13 | i | -2 | 1 | -7
C=CCN1C(c2cccc(C(F)(F)F)c2)=CS/C1=C(/C#N)c1nnc(N2CCOCC2)n1-c1ccccc1 | 3 | -3 | 9 | 1 | i | -2 | -9 | -9
